DUX4 txn inh = blocks DUX4-driven transcriptional activation. 293T-iDUX4 ZSCAN4-Gaussia luciferase reporter, 24 h; active compounds read low. actives 0.8% (n = 37,000). activity change, negative = inhibition, % (no concentration beside the values);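 active means -10% or lower and over 25 points stronger than a control reporter; inconclusive means -10% or lower with a smaller gap; inactive means above -10%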;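 further: 0% = median of neutral control wells and -100% = median of positive control wells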
DUX4 txn inh difference = also measured in DUX4 txn inh; calls as there; Gaussia minus Italica difference, %; measured here: selective DUX4 reporter inhibition;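 worked out from the two reporters; negative = selective loss of the DUX4 reporter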
DUX4 txn inh control = also measured in DUX4 txn inh; calls as there; activity change, negative = inhibition, %; measured here: Italica tet-on control reporter;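 0 = neutral control and -100 = positive control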
The depositor's hits bear a star; u = inconclusive; x = no result given; & = joins results of further samples.

DUX4 txn inh difference	DUX4 txn inh control	DUX4 txn inh	Molecule
-7	3.8	-4	COc1ccc(CN2C[C@H](O)COC[C@H]3O[C@@H](CC(=O)NCc4ccccc4Cl)CC[C@@H]32)cc1
7	10.0	17	C[C@@H](O)C#Cc1ccc([C@@H]2[C@@H](CO)N3CCCCN(C(=O)c4ccncc4)C[C@@H]23)cc1
0	-1.6	-2	CCCC(=O)Nc1ccc2c(c1)C(=O)N(C)[C@H]1CC[C@@H](CC(=O)NCCOC)O[C@H]1CO2
4	-1.1	3	CCCNC(=O)C[C@@H]1CC[C@H]2[C@@H](COC[C@H](O)CN2C(=O)C2CCOCC2)O1
3	2.6	5	CCC(=O)N1C[C@H](C)[C@@H](OC)CN(C)C(=O)c2cc(NC(=O)c3ccccc3)ccc2OC[C@@H]1C
2	3.3	5	CN1C(=O)c2cc(NC(=O)Nc3ccc(F)cc3)ccc2OC[C@H]2O[C@@H](CC(=O)NC3CCC3)CC[C@@H]21
7	-4.3	3	CCC(=O)N1[C@@H](CO)[C@H](c2ccccc2)C12CN(C(=O)c1cnccn1)C2
2	0.5	3	CC(C)[C@@H]1C(=O)N[C@@H](c2ccccc2)CC=CC[C@H](C)Oc2ccccc2C(=O)N1C (mixture of isomers)
-1	0.6	0	O=C(Nc1ccc(F)cc1)N1C[C@@H]2[C@H](c3ccccc31)[C@H](CO)N2Cc1ccccc1Cl
5	0.8	6	C[C@@H]1CN([C@H](C)CO)C(=O)c2ccccc2-c2ccccc2CO[C@H]1CN(C)C(=O)Cc1ccccc1
5	-0.7	4	COC(=O)C[C@@H]1CC[C@@H]2[C@H](COc3ccc(NS(=O)(=O)c4ccccc4F)cc3C(=O)N2C)O1
-6	5.6	-1	C[C@@H]1CN([C@H](C)CO)C(=O)c2cccc(NS(=O)(=O)c3ccccc3)c2O[C@@H]1CN(C)S(C)(=O)=O
1	-7.1	-6	C[C@@H]1CN([C@H](C)CO)C(=O)c2c(c3ccccc3n2C)-c2ccccc2CO[C@H]1CN(C)C(=O)Nc1cccc(F)c1
5	-1.1	4	O=C(C[C@@H]1CC[C@@H](NC(=O)C2CC2)[C@H](CO)O1)Nc1ccccc1
-2	-3.8	-6	O=C(c1cnccn1)N1CC(=O)N2[C@@H](CO)[C@H](c3ccc(/C=C/c4ccccc4)cc3)[C@@H]2C1

Sorted by count of non-hydrogen atoms (largest number first): 10 of the compounds above
DUX4 txn inh difference	DUX4 txn inh control	DUX4 txn inh	Molecule
1	-7.1	-6	C[C@@H]1CN([C@H](C)CO)C(=O)c2c(c3ccccc3n2C)-c2ccccc2CO[C@H]1CN(C)C(=O)Nc1cccc(F)c1
5	0.8	6	C[C@@H]1CN([C@H](C)CO)C(=O)c2ccccc2-c2ccccc2CO[C@H]1CN(C)C(=O)Cc1ccccc1
-6	5.6	-1	C[C@@H]1CN([C@H](C)CO)C(=O)c2cccc(NS(=O)(=O)c3ccccc3)c2O[C@@H]1CN(C)S(C)(=O)=O
-7	3.8	-4	COc1ccc(CN2C[C@H](O)COC[C@H]3O[C@@H](CC(=O)NCc4ccccc4Cl)CC[C@@H]32)cc1
-2	-3.8	-6	O=C(c1cnccn1)N1CC(=O)N2[C@@H](CO)[C@H](c3ccc(/C=C/c4ccccc4)cc3)[C@@H]2C1
0	-1.6	-2	CCCC(=O)Nc1ccc2c(c1)C(=O)N(C)[C@H]1CC[C@@H](CC(=O)NCCOC)O[C@H]1CO2
2	0.5	3	CC(C)[C@@H]1C(=O)N[C@@H](c2ccccc2)CC=CC[C@H](C)Oc2ccccc2C(=O)N1C (mixture of isomers)
4	-1.1	3	CCCNC(=O)C[C@@H]1CC[C@H]2[C@@H](COC[C@H](O)CN2C(=O)C2CCOCC2)O1
7	-4.3	3	CCC(=O)N1[C@@H](CO)[C@H](c2ccccc2)C12CN(C(=O)c1cnccn1)C2
5	-1.1	4	O=C(C[C@@H]1CC[C@@H](NC(=O)C2CC2)[C@H](CO)O1)Nc1ccccc1

(next part)
DUX4 txn inh difference	DUX4 txn inh control	DUX4 txn inh	Molecule
1	11	13	CN(C)CC#Cc1ccc([C@@H]2[C@H]3CN(C(=O)Nc4ccc(F)cc4)CCCCN3[C@H]2CO)cc1
0	0.5	1	COc1ccccc1CNC(=O)C[C@@H]1CC[C@@H]2[C@H](COc3ccc(NC(C)=O)cc3C(=O)N2C)O1
1	1.5	2	Cc1ccc(S(=O)(=O)Nc2ccc3c(c2)C(=O)N(C)[C@@H]2CC[C@@H](CC(=O)NCCc4ccncc4)O[C@@H]2CO3)cc1
-2	9.1	7	O=C(C[C@@H]1C[C@H]2c3cc(NC(=O)NC4CCCC4)ccc3O[C@H]2[C@H](CO)O1)NCCN1CCCCC1
-1	6.2	5	O=C(Nc1ccccc1)N1CCCCN2[C@H](CO)[C@H](c3ccc(Br)cc3)[C@@H]2C1
-3	3.6	0	C[C@H](CO)N1C[C@H](C)[C@H](CN(C)Cc2ccc(C(=O)O)cc2)OCc2cnnn2CCCC1=O
-16	8.6	-7	CCCN1[C@@H]2Cn3c(ccc(C4=CCCCC4)c3=O)[C@H]1[C@@H](C(=O)NCC)[C@@H]2CO
21	-1.7	20	COc1ccccc1S(=O)(=O)N1CC[C@H]2[C@H](CO)Nc3ccc(Br)cc3[C@H]21
-3	11	8	COc1ccccc1-c1ccccc1[C@@H]1[C@@H](C#N)N(C(=O)C2CC2)[C@@H]1CO
-5	1.3	-3	COc1ccc(C(=O)Nc2ccc3c(c2)OC[C@H](C)NC[C@H](C)[C@H](OC)CN(C)C3=O)cc1
-11&3	23&-1.0	12&2	O=C(C1CCOCC1)N1C[C@@H]2N[C@H](C1)C2c1ccc(-c2ccncc2)cc1 (stereo partly drawn)
10	-7.2	2	CC=Cc1ccc2n(c1=O)C[C@H]1[C@H](CO)[C@@H](C(=O)N3CCCCC3)N(Cc3ccccc3OC)[C@@H]21 (mixture of isomers)
5	0.7	6	COCC(=O)Nc1ccc2c(c1)OC[C@@H](C)N(C)C[C@H](C)[C@H](OC)CN(C)C2=O
-8	3.4	-5	O=C(CCN1CCCCC1)N[C@@H]1CC[C@H](CC(=O)N2CCC(Cc3ccccc3)CC2)O[C@@H]1CO
1	-1.9	-1	CCCNC(=O)N1C[C@H]2[C@@H](c3ccccc31)[C@@H](CO)N2CC1CCCC1
-4	2.4	-2	CCC(=O)Nc1ccc2c(c1)OC[C@@H](C)N(Cc1ccccc1)C[C@@H](C)[C@H](OC)CN(C)C2=O
-5	13	8	COc1ccc2c3c(n(C)c2c1)[C@H](CO)N(Cc1ccccc1Cl)CC31CCN(C(C)=O)CC1
8	-0.1	8	C/C=C/c1ccc([C@@H]2[C@@H](CO)N3C(=O)CN(S(=O)(=O)c4ccccc4)C[C@H]23)cc1
-13	11	-2	CCCC#Cc1ccc([C@@H]2[C@@H](CO)N3C(=O)CN(C(=O)c4ccc(F)cc4)C[C@@H]23)cc1
10	-6.4	3	O=C(C[C@H]1C=C[C@@H](NC(=O)c2cccc(F)c2)[C@@H](CO)O1)Nc1nccs1
-2	4.5	3	CCNC(=O)C[C@H]1CC[C@H](NC(=O)C2CC2)[C@@H](CO)O1
2&14	2.9&1.4	5&16	Cc1ccccc1-c1ccc(C2[C@H]3CNC[C@@H]2N3S(=O)(=O)c2ccccc2C)cc1 (stereo partly drawn)
-3	3.1	0	CC(=O)NC[C@H]1[C@@H](c2ccc(C3=CCCC3)cc2)[C@@H](CO)N1C(=O)NC(C)C
1	-3.8	-3	COc1ccccc1CN1[C@@H]2c3ccc(C4=CCCC4)c(=O)n3C[C@H]1[C@H](CO)[C@H]2C(=O)N(C)C
-4	5.1	1	COc1ccc(S(=O)(=O)N(C)C[C@@H]2Oc3c(NC(=O)C4CCOCC4)cccc3C(=O)N([C@@H](C)CO)C[C@@H]2C)cc1
1	3.2	4	CO[C@H](CN(C)S(=O)(=O)c1ccccc1)[C@@H](C)CN(Cc1ccccc1Cl)[C@@H](C)CO
1	-2.3	-2	C[C@@H]1CN([C@@H](C)CO)C(=O)c2cc(NS(=O)(=O)c3ccc(F)cc3)ccc2O[C@H]1CN(C)C(=O)Nc1ccccc1
-34*	-9.2*	-43*	COc1ccccc1-c1ccc(C2[C@@H]3CN(Cc4nccs4)C[C@H]2N3)cc1 (stereo partly drawn)
3	-5.5	-3	C[C@H](CO)N1C[C@H](C)[C@@H](CN(C)Cc2ccc(-c3ccccc3)cc2)Oc2c(NS(C)(=O)=O)cccc2C1=O
0	2.8	3	CN(C)CCCNC(=O)C[C@@H]1C=C[C@@H](NC(=O)Cc2cccnc2)[C@@H](CO)O1
0	6.3	6	O=C(C[C@H]1C[C@H]2c3cc(NC(=O)c4cccnc4)ccc3O[C@H]2[C@@H](CO)O1)NCCN1CCCCC1
5	-1.7	4	C[C@@H]1CCCCO[C@H](CN(C)Cc2ccccc2)[C@H](C)CN([C@@H](C)CO)C(=O)c2cc(NC(=O)Nc3ccc(F)cc3)ccc2O1
22	-25	-4	C[C@@H]1CN([C@H](C)CO)C(=O)c2c(c3ccccc3n2C)-c2ccccc2CO[C@@H]1CN(C)C(=O)N[C@H](C)c1ccccc1
7	7.3	14	Cc1ccccc1S(=O)(=O)N1CC[C@@H]2[C@H]1c1cc(-c3ccc(F)cc3)ccc1N(C)[C@H]2CO
-1	2.8	1	COC(=O)[C@@H]1[C@@H](CO)[C@@H]2Cn3c(ccc(C4=CCCC4)c3=O)[C@@H]2N1Cc1ccccn1
18	5.1	23	C[C@@H](O)C#Cc1ccc([C@H]2[C@@H](CO)N3CCCCN(S(=O)(=O)Cc4ccccc4)C[C@H]23)cc1
-18	25	7	CCCC(=O)N1CC2(C1)CN(S(C)(=O)=O)[C@@H](CO)c1c2c2ccc(OC)cc2n1C
8	-11	-4	CCc1csc(N2[C@H](C#N)[C@H](c3ccccc3C3=CCCC3)[C@H]2CO)n1
3	5.1	8	O=C(Cc1ccncc1)Nc1ccc2c(c1)[C@@H]1C[C@@H](CC(=O)N3CCc4ccccc4C3)O[C@@H](CO)[C@@H]1O2
2	-1.8	1	COC(=O)C[C@@H]1CC[C@H]2[C@@H](COc3ccc(NC(=O)c4ccccc4F)cc3C(=O)N2C)O1
-2	-0.7	-3	CC(=O)N1[C@@H]2CN(S(=O)(=O)c3ccccc3C)c3ccccc3[C@@H]2[C@@H]1CO
x	x	u	COc1cccc(S(=O)(=O)Nc2ccc3c(c2)[C@@H]2C[C@@H](CC(=O)NC4CCCCC4)O[C@@H](CO)[C@@H]2O3)c1
x	x	u	O=C(C1CCCCC1)N1CC2(C1)[C@H](c1ccccc1)[C@@H](CO)N2Cc1nccs1
0	0.6	0	Cc1noc(C)c1NC(=O)N(C)C[C@@H]1Oc2ccc(NC(=O)Cc3cn(C)c4ccccc34)cc2CC(=O)N([C@@H](C)CO)C[C@@H]1C
x	x	u	COc1cccc(-c2ccc3c(c2)[C@H]2[C@H](CCN2C(=O)NC2CCCC2)[C@H](CO)N3C)c1
3	-0.9	2	C[C@H](CO)N1C[C@H](C)[C@H](CN(C)S(=O)(=O)c2ccc(F)cc2)OCc2cnnn2CCCC1=O
4	1.5	5	CNC(=O)C[C@@H]1CC[C@H]2[C@@H](COC[C@H](O)CN2C(=O)c2ccc3c(c2)OCO3)O1
-6	2.7	-3	N#C[C@H]1[C@@H](c2ccccc2)[C@H](CO)N1C(=O)c1cc(Cl)cc(Cl)c1
6	2.5	9	COc1cccc(CNC(=O)C[C@@H]2CC[C@@H](NC(C)=O)[C@@H](CO)O2)c1
x	x	u	Cc1ccc(-c2ccc([C@@H]3[C@H](CO)N4CCCCN(C(=O)Nc5ccccc5)C[C@@H]34)cc2)cc1
0	2.5	3	C[C@H](CO)N1C[C@H](C)[C@@H](CN(C)Cc2ccccc2C(=O)O)Oc2ncc(C3=CCCCC3)cc2C1=O
x	x	u	CN(C)C(=O)c1ccc(-c2ccc3c(c2)[C@H]2[C@H](CCN2C(=O)C2CCCC2)[C@@H](CO)N3C)cc1
2	-0.2	2	C[C@H](CO)N1C[C@H](C)[C@@H](CN(C)S(=O)(=O)c2ccc(C#N)cc2)OCc2cn(nn2)CCCC1=O
-2	-0.2	-3	CO[C@@H](CN(C)S(=O)(=O)c1ccc(C)cc1)[C@H](C)CN(C(=O)Nc1ccccc1F)[C@@H](C)CO
7	0.3	8	C[C@@H]1CN([C@H](C)CO)C(=O)CCCn2nncc2CO[C@H]1CN(C)S(=O)(=O)c1ccc(F)cc1
1	-4.0	-3	N#C[C@H]1[C@H](c2ccc(-c3cccnc3)cc2)[C@H](CO)N1C(=O)Nc1ccc(F)cc1
3	-3.4	-1	O=C(C1CCCCC1)N1CC2(C1)[C@@H](c1ccccc1)[C@@H](CO)N2C(=O)NC1CCCC1
2	-0.7	1	CCC(=O)N[C@@H]1C=C[C@H](CC(=O)NCc2cc(F)cc(F)c2)O[C@H]1CO
-2	3.8	2	COC(=O)C[C@@H]1C[C@H]2c3cc(NC(=O)c4ccc5c(c4)OCO5)ccc3O[C@H]2[C@H](CO)O1
0	-2.3	-2	C[C@@H]1CN([C@H](C)CO)C(=O)c2cc(N(C)C)ccc2O[C@H]1CN(C)C(=O)Nc1cccc2ccccc12
-3	3.8	1	COCC(=O)Nc1ccc2c(c1)C(=O)N(C)[C@@H]1CC[C@H](CC(=O)NCc3ccccc3Cl)O[C@H]1CO2

Screening results from PubChem.

Some of the compounds tested. The share of hits here may be higher or lower than overall.
